Compound activity as filed in PubChem.
Autofluor counter: counter-screen for toxin protease inhibitors: compound fluorescence; 360,000 tested, 3.1% active; fluorescence intensity (no concentration beside the values); compound autofluorescence counterscreen, microsphere flow cytometry; active compounds read high; AID 624483;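 active = at least 3 SD above the mean of all compounds, about 16000 in these data; inconclusive = too few beads counted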;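 also: 100 nL of 1 mM stock went into each well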
BJeLR viability: kills HRASV12-expressing BJeLR cells. AID 1554. inhibition, % (no concentration beside the values). 300,000 tested, 0.17% active. BJeLR (HRASV12) viability, CellTiter-Glo ATP luminescence, 48 h; reference of the scale not given here;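 active = replicate mean above 50%; inconclusive = above 50% but judged a plate artefact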;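 also: 50 nL library stock added to about 25 µL; numbers are from one replicate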
PrP 5UTR inh: suppresses PrP 5' UTR mRNA reporter expression. cell-based PrP 5' UTR mRNA reporter, plate reader. inhibition, % (concentration not given with the values). 340,000 tested, 0.35% active. AID 488862;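 active = every replicate at 50% or more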;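 also: 0 = median of the neutral control wells; tested in H4 reporter cells; numbers are from one replicate; inactives centre near -14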
Mtb hypoxia rep: Mtb hypoxia fluorescent reporter inhibition | M. tuberculosis hypoxia-regulated fluorescent reporter, fluorescence | fluorescence inhibition, % (no concentration beside the values) | 300,000 tested, 0.1% active | AID 1159583;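 active = 35 to 45% if threefold the growth effect, above 45% if 1.5-fold the growth effect; inactive = the rest, general growth blockers included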;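 also: wells of about 50 µL received 100 nL stock; 0% = vehicle wells and 100% = reference inhibitor wells; whole bacteria with a GFP reporter of the hypoxia response; strong numbers were not always called active; many hits fall short of the cut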
Sa RN4220 lethal: S. aureus RN4220 growth inhibition; OD600, 16 h; inhibition, % (test concentration not listed); 330,000 tested, 0.33% active; AID 1259311;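 active = z-score of -3 or lower and OD600 up to 0.18 on both plates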;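 also: plate controls were untreated cells for no effect and reference antibiotic for full effect; stock transfer was 100 nL into about 80 µL; one replicate is shown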
Sa ugtP lethal: compounds lethal to S. aureus RN4220 ugtP deletion mutant; 330,000 tested, 0.54% active; growth inhibition, % (no concentration beside the values); OD600 growth, 16 h; some inactives read as strong as hits; AID 1259309;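 active = z-score under -3 and OD600 up to 0.15 on both plates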;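 also: plate controls were untreated wells for no effect and antibiotic for full effect; wells of about 80 µL received 100 nL stock; the first replicate is given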
Mtb hypoxia rep growth: second read-out of Mtb hypoxia rep, no call of its own (marks repeat the call); growth inhibition, %; measured here: M. tuberculosis growth (absorbance);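 0% = vehicle and 100% = reference antibiotic; read after six days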
Numbers without * were called inactive; u = inconclusive; x = no result given.

SMILES	Autofluor counter	BJeLR viability	PrP 5UTR inh	Mtb hypoxia rep	Mtb hypoxia rep growth	Sa RN4220 lethal	Sa ugtP lethal
Oc1ccccc1-c1nc(N2CCN(Cc3ccccc3)CC2)c2ccccc2n1	u	-1	-11	x	x	-11	4
CCN(CC(=O)Nc1ccc2c(c1)OCO2)CC(=O)Nc1ccccc1C(F)(F)F	3818	x	-12	-9	-10	-3.9	-8
CCOCCCN1C(=O)CN(C2CCCCCC2)C(=O)C1c1ccc(OC)cc1 (stereo not given)	19637*	5	-21	4	2	-0.8	1
CCOC(=O)NC(=O)C(=CNc1ccc(C)cc1)C(=O)NC(=O)OCC	1978	-3	-4	7	-2	3.9	7
COc1ccc(-n2c(=S)[nH]c3cc(C(=O)NCc4ccccc4OC)ccc3c2=O)c(OC)c1	3165	-16	1	6	10	-9.9	2
O=C(O)c1ccc(S(=O)(=O)N(Cc2ccccc2)Cc2ccccc2)cc1	2927	0	-13	2	-5	9.3	-16
COc1ccc(NC(=O)C(C)SCc2ccccc2)cc1OC (stereo not given)	7921	4	-9	9	10	1.4	9
CN(CC(=O)N1CCN(Cc2ccccc2)CC1)C(=O)Cc1cccc2ccccc12	4621	x	-12	-11	5	-0.8	-2
CCOc1ccccc1C(=O)NCC(=O)OCC(=O)c1c(N)n(C)c(=O)n(C)c1=O	x	x	-12	-3	-1	5.1	3
CCOC(=O)c1oc2ccccc2c1COC(=O)CNC(=O)c1ccccc1	5359	0	-23	14	-1	1.4	11
CCCCCCC(=O)NN=C1CCCc2ccccc21	x	x	x	6	1	-1.3	-12
COc1ccc2ccccc2c1C(O)c1nccn1C (stereo not given)	5246	2	-12	-1	5	3.8	2
O=C(O)CCN1C(=O)/C(=C2\C(=O)N(Cc3ccccc3Cl)c3ccccc32)SC1=S	3291	-5	1	x	x	x	x
COc1ccc(OC)c(C=NNc2nccs2)c1	x	x	x	13	1	13	8
COc1cccc(NC(=O)c2ccc(NC(=O)C(C)C)cc2)c1	4643	-1	-25	11	6	2.9	-4
Cc1ccccc1NC(=O)c1cccc(C(=O)Nc2ccccc2C)c1	4155	-3	-17	4	3	2.3	6
Cc1cccn2c(=O)c3cc(S(=O)(=O)c4ccccc4)c(=N)n(Cc4cccnc4)c3nc12	3760	0	-2	7	15	1.4	5
COc1cc(C2C3=C(CC(C)(C)CC3=O)N(C)C3=C2C(=O)CC(C)(C)C3)cc(Br)c1O	3875	-3	2	-3	2	1.5	2
C=CCn1c(SCC(=O)Nc2ccc(O)cc2)nc2sc(CC)cc2c1=O	4315	2	-9	8	1	2.8	3
COc1cccc(CNS(=O)(=O)C=Cc2ccc(OC)c(OC)c2)c1	x	x	x	2	-2	6.8	4
O=C(O/N=C(/c1ccccc1)c1ccncc1)c1cccc(F)c1	4859	-3	-16	x	x	x	x
CCOC(=O)c1cnn(-c2ncnc3c2oc2ccccc23)c1N	3347	1	-76	8	8	4.3	8
CCN(C(=O)COC(=O)/C=C/c1ccccc1)C1CCCCC1	4275	3	-10	8	6	1.9	2
COc1cc(-c2nc3c(c(C)nn3-c3ccccc3)c3cc(OC)c(OC)cc23)ccc1O	5119	-3	-35	x	x	2.3	-13

Profiles, quoted from the list. Order of values: Autofluor counter | BJeLR viability | PrP 5UTR inh | Mtb hypoxia rep | Mtb hypoxia rep growth | Sa RN4220 lethal | Sa ugtP lethal
Listed for Cc1ccccc1NC(=O)c1cccc(C(=O)Nc2ccccc2C)c1 = 4155 | -3 | -17 | 4 | 3 | 2.3 | 6
Listed for COc1cc(C2C3=C(CC(C)(C)CC3=O)N(C)C3=C2C(=O)CC(C)(C)C3)cc(Br)c1O = 3875 | -3 | 2 | -3 | 2 | 1.5 | 2
Listed for O=C(O/N=C(/c1ccccc1)c1ccncc1)c1cccc(F)c1 = 4859 | -3 | -16 | x | x | x | x
Listed for CCN(C(=O)COC(=O)/C=C/c1ccccc1)C1CCCCC1 = 4275 | 3 | -10 | 8 | 6 | 1.9 | 2
Listed for COc1cc(-c2nc3c(c(C)nn3-c3ccccc3)c3cc(OC)c(OC)cc23)ccc1O = 5119 | -3 | -35 | x | x | 2.3 | -13

Going on with the list:
SMILES	Autofluor counter	BJeLR viability	PrP 5UTR inh	Mtb hypoxia rep	Mtb hypoxia rep growth	Sa RN4220 lethal	Sa ugtP lethal
COC(=O)Cn1c(=O)c2c(nc3n2CC(C)CN3c2ccc(C)c(C)c2)n(C)c1=O (stereo not given)	4377	-9	-21	-7	3	1.0	10
c1ccc(Oc2cccc(OCCCn3cncn3)c2)cc1	3435	-2	-18	x	x	4.7	16
COc1ccc(C(CNc2ccc(S(=O)(=O)N3CCN(C)CC3)cc2[N+](=O)[O-])N(C)C)cc1 (stereo not given)	u	x	0	3	4	2.4	3
O=C(O)CCC(=O)Nc1cc(C(F)(F)F)cc(C(F)(F)F)c1	6128	3	-18	0	8	1.4	2
COc1ccccc1CC(=O)Nc1ccc2[nH]ncc2c1	3551	2	-15	-1	5	-3.0	10
CC(C)CC(C(=O)NC1CCCC1)N(Cc1ccc2c(c1)OCO2)C(=O)c1snc(C(N)=O)c1N (stereo not given)	2529	-3	-21	-4	2	-0.3	-3
Cc1ccc(CNC(=O)NC23CC4CC(CC(C4)C2)C3)cc1	2003	5	-23	-1	13	-3.9	-6
Cc1c(Cl)cccc1NC(=S)NCCc1ccccn1	3790	3	-10	1	-4	0.4	2
COc1ccccc1NC(=O)CN(c1ccccc1F)S(C)(=O)=O	8857	-17	-26	8	-1	0.3	-1
CCN(C(=O)CCCC(=O)N(CC)c1ccccc1)c1ccccc1	2114	-2	-27	-6	6	-2.0	2
C/C(=C\c1cccc(Cl)c1)C(=O)c1c(C)cc(C)[nH]c1=O	3716	-13	-10	4	-3	2.7	0
CC(NC(=O)[C@H](NC(=O)[C@@H]1Cc2ccccc2CN1)c1ccccc1)c1ccccc1 (stereo not given in full)	5594	-6	-35	x	x	1.3	-11
Cc1cc(C)c(NC(=O)CNC(=O)CNC(=O)C2CCCCC2)c(C)c1	3897	x	-14	-7	-6	-6.3	-6
Cc1cc(NC(=O)NC2CCCN2S(=O)(=O)c2ccc(Cl)cc2)no1 (stereo not given)	4972	3	-30	x	x	2.9	4
Cc1cc(/C=C2\SC(=S)NC2=O)cc(C)c1O	3327	-11	-24	9	-4	78	69
CC(=O)N1N=C(c2ccccc2)CC1c1cccs1 (stereo not given)	3665	-2	x	-5	10	1.6	0
O=C(O)c1cccc(NC(=O)N2C[C@H]3C[C@@H](C2)c2cccc(=O)n2C3)c1	5292	-1	-7	x	x	3.1	8
CCCN(CC(=O)Nc1ccccc1C)C(=O)C1CCCN(C(=O)c2ccc(Cl)cc2)C1 (stereo not given)	4064	x	-16	-3	0	3.0	7
COc1ccc(N2CC(C(=O)Nc3ccc4c(c3)OCCO4)CC2=O)cc1 (stereo not given)	4003	6	-13	5	9	-1.1	7
Cc1noc2ncnc(SCc3ccc(C(F)(F)F)cc3)c12	3378	-1	-27	10	21	1.2	15
c1ccc(Oc2cccc(CN3CCCCC3)c2)cc1	9259	5	-13	21	12	-1.9	7
COc1ccc(-c2noc(CN3C(=O)c4ccccc4C3=O)n2)cc1	9362	1	-26	2	13	1.8	3
O=C(COC(=O)c1ccc(F)cc1)Nc1nc2ccc([N+](=O)[O-])cc2s1	4203	-4	-39	7	3	-0.1	-2
Cc1cc(NC(=O)CCN2C(=O)/C(=C/c3ccccc3F)SC2=S)no1	x	16	x	5	-3	4.8	1
CN(C)c1nc(-c2cn(CCC#N)c3ccccc23)cs1	3639	-2	1	7	6	3.5	4
CCC(C)Nc1nc2c(C)cccn2c(=O)c1C=Nc1ccc(OC)cc1 (stereo not given)	4107	x	-19	13	19	0.0	4
Cc1ccc(N2CCN(C(=O)c3ccccc3NC(=O)/C=C\C(=O)O)CC2)cc1	2586	11	-21	x	x	2.9	-3
O=C(Cn1cc(Cl)c([N+](=O)[O-])n1)NCCC1=CCCCC1	4135	-3	-13	3	11	-1.4	2
C=C(C)C(=O)N1CC2(CC(c3cccc(NC(=O)CC)c3)=NO2)C[C@H]1C(N)=O (stereo not given in full)	3910	3	-29	x	x	x	x
O=C(NN=Cc1cc(Br)c(Br)o1)C1COc2ccccc2O1 (stereo not given)	x	x	x	-1	2	0.3	1
Clc1cccc(CN2CCCCC2c2cccnc2)c1 (stereo not given)	6907	-8	-27	5	8	-5.6	0
Cc1cc(Cl)ccc1OCC(=O)OCC(=O)NC1CCCC1	8391	x	-20	11	-6	7.8	6
O=C(Nc1cccc(F)c1)OC(CN1CCCCC1)C(F)(F)F (stereo not given)	3439	-3	-17	x	x	-0.2	-3
CCOCCCNC(=O)/C(C#N)=C/c1ccc([N+](=O)[O-])o1	4283	5	-19	12	7	4.9	4
COC(=O)C1=C(C)N(Cc2ccccc2)C(=NCc2ccc(OC)cc2)NC1c1ccccc1 (stereo not given)	x	x	x	6	18	-2.1	-29
CCCC(C(=O)N1CCOCC1)N1C(=O)C2C3C=CC(C3)C2C1=O (stereo not given)	8908	6	0	1	-11	0.3	-2
O=C(CSc1nncc2ccccc12)N1CCCCC1	5472	2	-28	-5	0	0.4	-2
CC(=O)Nc1cccc(NC(=O)c2cc3ccccc3o2)c1	4484	10	-72	5	16	5.4	-10
COC(=O)C1=C(c2cccc(C#N)c2)CC2CCC1N2C(=O)NCc1cc(C)oc1C(F)(F)F (stereo not given)	x	x	x	9	7	1.6	-8
O=C(CN1CCCC1)Nc1c(C(=O)C2CC2)oc2ccccc12	4574	-2	-22	15	13	3.6	6
O=C(CSc1nc2[nH]ncc2c(=O)[nH]1)NCc1ccccc1	10821	-8	-22	x	x	x	x
CC(=NCCN1CCN(C(C)=C2C(=O)c3ccccc3C2=O)CC1)C1=C(O)CC(C)(C)CC1=O	10229	5	-8	4	-1	-1.7	-7
CN(C)C(=O)/C=C\c1cn(-c2ccccc2)nc1-c1ccc2c(c1)OCCO2	2526	-7	-10	6	6	4.2	-16
O=S(=O)(C=Cc1ccccc1)N1CCN(c2nc(-c3cccnc3)nc3ccccc23)CC1	x	x	x	0	4	-3.2	-1
Cc1c(/C=N\NC(=O)C2COc3ccccc3O2)c2ccccc2n1C (stereo not given)	2000	22	67*	x	x	x	x
COc1ccc2c(c1)c(C(=O)CN1CCC(C(N)=O)CC1)c(C)n2C	2741	1	-38	x	x	3.9	1
CCN(CC)S(=O)(=O)c1ccc(NC(=O)CN(c2cccc(C)c2)S(C)(=O)=O)cc1	3572	3	1	10	-2	0.7	4
COC(=O)[C@H](Cc1ccccc1)NC(=O)N1CCCCC1C (stereo not given in full)	10036	-4	-27	6	6	3.7	-1

Already shown: an excerpt of the list.
SMILES	Autofluor counter	BJeLR viability	PrP 5UTR inh	Mtb hypoxia rep	Mtb hypoxia rep growth	Sa RN4220 lethal	Sa ugtP lethal
COC(=O)C1=C(c2cccc(C#N)c2)CC2CCC1N2C(=O)NCc1cc(C)oc1C(F)(F)F (stereo not given)	x	x	x	9	7	1.6	-8
O=C(CN1CCCC1)Nc1c(C(=O)C2CC2)oc2ccccc12	4574	-2	-22	15	13	3.6	6

Later entries
SMILES	Autofluor counter	BJeLR viability	PrP 5UTR inh	Mtb hypoxia rep	Mtb hypoxia rep growth	Sa RN4220 lethal	Sa ugtP lethal
NS(=O)(=O)c1cccc(C(=O)NC2CCSc3ccccc32)c1 (stereo not given)	5664	2	-2	-5	15	-3.2	-5
CCC(=O)Nc1ccc(-c2ccc(N3CCN(C)CC3)nn2)cc1	4473	-2	-17	7	0	2.9	23
COc1ccc(OC)c(CNC(=O)CCS(=O)(=O)c2ccc3c(c2)oc(=O)n3C)c1	6810	1	-10	14	6	2.0	3
COc1ccccc1N1CCN(C(=O)/C=C/c2ccc(C)cc2)CC1	3124	-4	-25	-3	3	8.2	5
